High-throughput results from PubChem.
LANA-H2B inh – blocks KSHV LANA binding to histone H2A/H2B; 0.6% of 320,000 active; cell-free LANA-H2A/H2B peptide, fluorescence polarization; inhibition, % (concentration not given with the values); AID 2629; Q9QR71; in the data active means inhibition mostly above about 10%, no sharp cut-off; inactive means mostly below about 6.7%;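 further: stock transfer was 7.5 nL into about 10 µL; 0% = median of vehicle wells and 100% = median of positive control wells; one replicate is shown; the record names a cut of 25% in any replicate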
Target sequence (Q9QR71 whole entry, looked up): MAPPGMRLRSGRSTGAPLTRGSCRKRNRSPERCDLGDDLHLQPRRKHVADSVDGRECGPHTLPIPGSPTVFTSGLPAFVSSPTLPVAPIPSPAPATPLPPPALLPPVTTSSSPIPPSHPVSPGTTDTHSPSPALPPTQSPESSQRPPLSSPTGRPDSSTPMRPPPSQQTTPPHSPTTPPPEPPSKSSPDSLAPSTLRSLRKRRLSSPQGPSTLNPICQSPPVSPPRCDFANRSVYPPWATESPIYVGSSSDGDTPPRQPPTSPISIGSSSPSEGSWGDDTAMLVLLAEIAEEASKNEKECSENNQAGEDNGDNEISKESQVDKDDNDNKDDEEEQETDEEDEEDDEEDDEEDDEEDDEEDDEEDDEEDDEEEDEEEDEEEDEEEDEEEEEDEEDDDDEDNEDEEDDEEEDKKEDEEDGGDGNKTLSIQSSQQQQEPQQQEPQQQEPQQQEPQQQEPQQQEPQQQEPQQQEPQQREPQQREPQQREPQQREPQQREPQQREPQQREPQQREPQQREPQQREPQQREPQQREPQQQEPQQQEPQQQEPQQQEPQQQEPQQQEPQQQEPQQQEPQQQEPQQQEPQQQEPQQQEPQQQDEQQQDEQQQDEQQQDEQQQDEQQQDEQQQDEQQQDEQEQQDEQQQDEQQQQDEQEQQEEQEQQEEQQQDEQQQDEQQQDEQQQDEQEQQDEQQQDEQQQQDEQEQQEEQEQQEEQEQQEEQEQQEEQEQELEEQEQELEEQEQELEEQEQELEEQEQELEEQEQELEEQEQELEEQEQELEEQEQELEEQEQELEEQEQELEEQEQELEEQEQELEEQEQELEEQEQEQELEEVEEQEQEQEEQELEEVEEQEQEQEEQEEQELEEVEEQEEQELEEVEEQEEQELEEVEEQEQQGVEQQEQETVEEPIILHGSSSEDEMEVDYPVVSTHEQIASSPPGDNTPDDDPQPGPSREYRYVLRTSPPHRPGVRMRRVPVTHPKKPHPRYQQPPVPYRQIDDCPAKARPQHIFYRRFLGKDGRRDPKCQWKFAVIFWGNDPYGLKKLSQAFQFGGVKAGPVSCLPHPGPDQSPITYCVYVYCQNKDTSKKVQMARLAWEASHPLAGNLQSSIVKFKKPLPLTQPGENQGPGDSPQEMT
ALR H2O2 inh – blocks human ALR sulfhydryl oxidase activity; P55789; 3.8% of 290,000 active; inhibition, % (no concentration beside the values); purified ALR, DTT oxidation, H2O2 HRP-luminol luminescence; AID 485317;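 active means mean and each replicate at 75% or more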;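 further: stock transfer was 7.5 nL into about 7.5 µL; 0% = neutral wells and 100% = wells with inactivated enzyme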
UCH37 DUB inh – inhibitors of human deubiquitinating enzyme UCH37 | Q9Y5K5 | purified proteasome/UCH37, Ub-AMC cleavage fluorescence | inhibition, % (no concentration beside the values) | 0.33% of 330,000 active;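 active means mean of two replicates above 20%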;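 further: 0% = compound-free wells with enzyme and 100% = wells lacking proteasome; stock transfer was 100 nL into about 20 µL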
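Assay system: Proteasome-bound UCH37. Buffer or medium: pH 7.4 Tris-HCl (50 mM) with ovalbumin, ATP-MgCl2, DTT. Incubation: 30 min preincubation with enzyme, 25 min cleavage at room temperature. Measured by: fluorescence, ex 355 nm, em 460 nm. Read-out basis: percent inhibition. Control set: wells without proteasome as full block, compound-free enzyme plus substrate as uninhibited.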
HNF4A DNA FP – change in binding of human HNF4 alpha to DNA. AID 1224865. 0.3% of 360,000 active. HNF4a-FITC DNA binding, fluorescence polarization, 1 h. activity change, % at 10 µM. P41235; in the data active means activity change above about 30%, passing the limit was not always enough;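 further: controls were the assay level and a saturating level of protein; the project sought stronger binding though the title names inhibitors; some compounds called inactive have numbers as strong as hits; positive values seem to mean higher polarization but the record does not say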
Ecoli growth – inhibitors of Escherichia coli growth; OD600, 23 h; active compounds read low; OD600 absorbance (concentration not given with the values); 0.21% of 330,000 active;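 active means OD600 absorbance below the run mean of sample wells minus 3.6 SD, in any replicate, cut at about 0.56 in these data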;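 further: stock transfer was 300 nL into about 60 µL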
Beta2AR agonist – activates human beta-2 adrenergic receptor causing internalization. 0.43% of 340,000 active. P07550. Am2.2-beta2AR cells, FAP receptor internalization, flow cytometry; reference of the scale not given here. response, % (test concentration not listed). AID 504454;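 active means response above a set limit, near 3 SD of response in nonfluorescent compounds, cut at about 42% in these data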;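 further: stock transfer was 100 nL into about 11 µL; a reference agonist was the positive control; negative values mostly stem from fluorescent compounds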
FGF22 binding – binders of recombinant human FGF22 by thermal shift | Q9HCT0 | SYPRO orange fluorescence; percent of sucrose octasulfate shift, DMSO zero | calls only at 9.99 µM | 1.5% of 340,000 active | AID 651658;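 active means melting point raised past a set limit in the mean and every replicate; three in four hits are not shown here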
Numbers without * were called inactive; i = inactive; x = no result given. An excerpt; the hit share may differ from the screen's.

SMILES	LANA-H2B inh	ALR H2O2 inh	UCH37 DUB inh	HNF4A DNA FP	Ecoli growth	Beta2AR agonist	FGF22 binding
Nc1c(Cl)cc(-c2csc(NC(CO)c3nc4ccccc4n3CCOCCO)n2)cc1Cl (stereo unspecified)	7.0	6.5	4.3	5.9	0.637	2.9	i
CCOCCCNC(=S)N1CCN(Cc2ccc3c(c2)OCO3)CC1	-5.3	-2.0	-0.1	-0.8	0.702	-4.2	i
CCCNC(=O)Nc1ccc2c(c1)N(C)C(=O)c1ccccc1S2	-0.7	-9.9	1.3	-1.3	0.633	-16.7	x
O=C(C1=COCCO1)N1CCN(c2nc3ccc([N+](=O)[O-])cc3s2)CC1	6.6	-8.0	5.6	3.9	0.633	4.2	x
Clc1ncccc1-c1nc2ccccc2s1	-1.0	-7.7	1.1	-0.3	0.678	-6.5	i
CC(=O)c1ccc(N(C(=O)CNC(=O)c2ccco2)C(C(=O)NCC2CCCO2)c2ccccc2)cc1 (stereo unspecified)	-0.5	-2.3	-0.4	-9.9	0.701	14.8	i
Cc1cccc(C)c1NC(=O)CSc1nnc(Cc2ccccc2)o1	3.1	-0.7	0.1	-2.4	0.692	3.0	x
O=C(CC(=O)NC1CCCCC1)N/N=C/c1ccccc1[N+](=O)[O-]	-0.6	x	x	-2.4	x	3.7	i
Cn1c(SCc2c(Cl)cccc2Cl)nnc1-c1cccs1	3.6	-6.5	2.0	-0.2	0.657	-6.3	x
CN(CC1COc2ccccc2O1)C(=O)CSc1nncs1 (stereo unspecified)	2.1	-5.7	2.8	-4.3	0.677	-2.5	i
O=c1cc(N2CCN(Cc3ccccc3)CC2)c(-c2ccccc2)n[nH]1	-2.7	9.8	5.6	0.7	0.728	2.6	x
O=C(Nc1ccccc1Cl)NC1(C(=O)NCCCN2CCOCC2)CCCCC1	-3.9	-5.6	2.7	0.7	0.749	10.6	x
CCOC(=O)C1CCN(S(=O)(=O)c2ccc(C(C)=O)cc2)CC1	5.1	-17.8	1.9	-2.2	0.685	1.3	x
O=C(O)C1CCN(C(=O)c2ccccc2N2C(=O)[C@@H]3Cc4c([nH]c5ccccc45)C(c4cccc(Cl)c4)N3C2=O)CC1 (stereo partly specified)	-6.2	98.8*	-0.6	-8.3	0.762	-3.1	i
Cc1ccc(NC(=O)CN(C)C(=O)c2ccc3[nH]c4c(c3c2)CC(C)CC4)cc1 (stereo unspecified)	-6.7	-6.0	-0.3	-4.3	0.694	-4.7	i
O=C(CCc1nc2ccccc2c(=O)[nH]1)OCc1cccc(C(F)(F)F)c1	-3.8	0.1	1.0	1.9	0.708	4.6	x
COc1ccc(/C=N\NC(=O)c2cc(OCC(F)(F)F)ccc2OCC(F)(F)F)cc1	-4.9	-0.2	x	-3.4	x	-12.3	x
Cc1ccc(S(=O)(=O)N2CCOCC2)cc1C(=O)OCC(=O)NC1CC1	15.0	-3.5	-0.8	0.9	0.622	-4.9	i
CC/C(=N/Nc1cccc(C)c1)c1cnnc(SC)n1	2.8	41.3	x	1.5	x	10.7	x
CSc1nc(-c2ccccc2)nc(SC)c1C(C)=O	-1.2	-3.7	2.9	2.5	0.708	7.6	x
COc1ccc(CSc2nnnn2C)cc1F	-1.8	-13.4	5.9	0.7	0.749	7.2	x
Cc1cc(N2CCCC2)nc2ccc(NC(=S)NCCCOC(C)C)cc12	2.3	35.3	-43.5	-0.4	0.661	3.7	i
N/C(=N\OC(=O)COc1ccc(Br)cc1Cl)c1cccnc1	-4.1	-2.3	4.5	-4.0	0.699	-5.3	i
CCN(c1ccccc1)c1cc(C)nc2ncnn12	5.1	x	6.0	1.1	0.721	0.0	i
CCOc1ccc(NC(=O)CSc2nc(N3CCOCC3)nc(N3CCOCC3)n2)cc1	-2.2	x	-2.6	1.0	0.711	-1.9	i
CCn1cc(C(=O)N[C@@H](CCSC)C(=O)NC(C)(C)CO)c(=O)c2cc3c(cc21)OCO3	3.2	x	-18.1	-2.8	0.632	4.3	i
CCOC(=O)c1sc2nc(NC(=O)C(C)(C)C)sc2c1C	-6.0	15.2	4.6	-2.2	0.718	-1.5	i
Cc1ccc(-c2n[nH]c(=S)n2/N=C/c2ccc(C)s2)cc1	5.7	3.7	x	-4.0	x	-0.6	x
CC(C)(CO)NC(=O)C(Cc1ccccc1)N1C(=O)c2ccccc2C1=O (stereo unspecified)	0.0	0.8	0.2	-2.1	0.674	-14.9	i
COc1ccc(-c2c(NC(=O)c3ccco3)n(C)c3ccccc3c2=O)cc1	8.5	x	5.0	0.0	0.681	-3.9	x
O=C(COCc1ccccc1)N[C@@H]1c2ccccc2CC[C@@H]1OCc1ccccc1	x	x	-0.2	3.0	0.686	3.5	i
CC(C)(C)NC(=O)CN(C(=O)CS(=O)CC(=O)Nc1ccc(F)cc1)c1ccc(F)c(Cl)c1 (stereo unspecified)	-0.2	-6.0	-1.1	1.9	0.693	-5.0	x
CCOc1cc(C=C(C#N)C#N)ccc1Oc1ccc([N+](=O)[O-])cn1	-2.5	14.9	9.4	-0.9	0.708	-0.8	i
CCN(C(=S)NC(=O)C1CC1)c1ccccc1	-0.2	-3.2	0.3	2.2	0.696	7.0	i
O=C(Nc1ccc(F)cc1)C1CCN(c2nnnn2-c2ccccc2)CC1	-3.0	-21.4	1.8	2.0	0.721	0.3	x
Cc1cc2oc(C(=O)N(Cc3ccccc3)C3CCS(=O)(=O)C3)cc(=O)c2cc1Cl (stereo unspecified)	2.7	-46.4	-1.9	-3.4	0.681	2.5	x
Cc1cccc(N2CCN(S(=O)(=O)c3ccc4c(c3)OCCO4)CC2)c1C	-2.5	-0.1	6.8	2.1	0.727	8.4	i
COc1cccc(NC(=O)CN2C(=O)NC(c3ccccc3)(c3ccccc3)C2=O)c1	-1.2	x	1.5	4.8	0.689	5.4	i
Cc1cc(NC(=O)CCCC(=O)N(CC(=O)NCCc2ccccc2)Cc2ccc(F)cc2)no1	-5.1	-3.3	0.9	-2.3	0.687	-0.4	x
NC(=O)c1c[nH]c2ccccc12	-2.0	-14.8	4.6	0.1	0.713	9.8	i
COc1cccc2c1OC1(C)CC2NC(=O)N1c1cccc(C(=O)Nc2ccc3c(c2)OCCO3)c1 (stereo unspecified)	-1.9	-20.5	4.6	1.9	0.676	5.3	x
CC(=O)N1CCN(CC(=O)Nc2ccccc2C(=O)Nc2ccccc2)CC1	2.4	-4.6	0.0	-0.1	0.696	-5.3	i
CC(=O)O[C@H]1[C@H](C)OC=C[C@@H]1OC(C)=O	-5.2	-4.5	4.3	-4.7	x	0.1	i
Cc1ccsc1C(=O)OCC(=O)N1C(C)CCCC1C (stereo unspecified)	4.0	-5.2	0.1	2.6	0.703	6.1	i
CCN(CC(=O)Nc1c(F)cccc1F)C(=O)C(C)SCc1nc2sc(C)c(C)c2c(=O)[nH]1 (stereo unspecified)	1.1	-3.7	1.7	3.3	0.697	3.9	i
O=C(Nc1ncc(Cc2ccccc2Cl)s1)c1ccc(-c2cccc([N+](=O)[O-])c2)o1	-5.2	-13.6	9.7	-3.8	0.731	10.1	x
CC(C)(C)OC(=O)CC1(C#N)c2ccccc2C(Br)=CN1C(=O)c1ccccc1 (stereo unspecified)	-5.8	-6.6	-0.4	2.4	0.725	-2.4	i
CCOC(=O)C1CCN(CC(=O)N2CCc3ccccc32)CC1	1.9	-3.5	0.7	1.3	0.691	2.1	i
O=C(CCn1nc(-c2ccccc2)c2ccccc2c1=O)NCC1CCCO1 (stereo unspecified)	1.9	-2.1	3.9	1.3	0.725	-9.4	x
CS(=O)(=O)N1CCCC(c2nc(-c3ccc(S(=O)(=O)NCc4ccccc4)cc3)no2)C1 (stereo unspecified)	-1.2	-10.7	1.0	-5.3	0.694	-6.5	i
CCOc1ccc(NC(=O)CNC(=O)c2ccc(OC)cc2)cc1	-4.0	2.1	-0.9	-2.5	0.69	1.5	i
C=CCNC(=S)N/N=C/c1ccccc1OCCOc1ccccc1	-4.4	5.1	x	3.2	x	-3.6	i
Cc1ccc(-n2c(Cc3ccccc3)nnc2SCC(=O)NNC(=O)Cc2ccccc2)cc1	1.7	-7.9	0.5	-1.0	0.646	17.0	x
O=C(CCC(NC(=O)OCc1ccccc1)C(=O)OCc1ccccc1)NCC(=O)OCc1ccccc1 (stereo unspecified)	-1.8	-4.9	-0.8	-1.1	0.719	7.3	x
COc1ccc(/C=N/NC(=O)C2CCN(c3ncc(C(F)(F)F)cc3Cl)CC2)cc1	-2.2	11.1	x	5.0	x	-11.6	x
O=C1NC(c2ccccc2)(C(F)(F)F)SC2=CCCCCN12 (stereo unspecified)	-4.9	-0.7	1.8	3.1	0.743	11.9	x

Further structures follow.
SMILES	LANA-H2B inh	ALR H2O2 inh	UCH37 DUB inh	HNF4A DNA FP	Ecoli growth	Beta2AR agonist	FGF22 binding
Cc1ccc(OCCN2C(=O)c3ccccc3C2=O)cc1	-5.2	-2.1	1.8	-2.8	0.648	-10.0	x
CCC(C)c1ccc(-c2cc(C(=O)OCC(=O)Nc3cc(C)on3)c3ccccc3n2)cc1 (stereo unspecified)	1.1	7.2	-22.6	-0.7	0.721	9.4	x
CCN1CCN(CCOc2ccccc2OCc2ccccc2)CC1	0.0	-1.9	-1.9	5.1	0.675	1.4	i
O=C(c1cccnc1)N1CCN(Cc2cccc(Br)c2)CC1	4.3	-2.8	1.6	1.3	0.666	14.4	x
CC1=CC(=O)C2=C(C)CC[C@@H]3[C@H](OC(=O)[C@H]3C)[C@@H]12	7.6	2.2	-0.9	1.4	x	10.4	i
Cc1ccccc1-c1nnc(-c2ccc(Cl)cc2)o1	10.7	-3.3	-1.1	-1.0	0.682	-1.2	i
O=c1ncn(-c2cccc([N+](=O)[O-])c2)c2ccccc12	0.8	5.5	4.7	1.0	0.605	4.0	i
Cc1nn(C)c(C(=O)N/N=C/c2ccccc2)c1[N+](=O)[O-]	2.0	-3.1	x	-1.9	x	-8.0	x
N#Cc1ccc(COC(=O)Cn2nnc(-c3ccccc3)n2)cc1	-5.0	-20.3	2.4	-1.0	0.71	4.1	x
O=C(c1ccco1)N1CCN(C2CC(=O)N(c3ccc4c(c3)OCO4)C2=O)CC1 (stereo unspecified)	0.6	0.9	2.1	0.5	0.698	1.4	x
COCCC(=O)N1CCC(Oc2ccc(C(=O)NCCc3cn[nH]c3)cc2)CC1	1.8	4.1	1.1	1.9	0.676	4.9	i
Cc1ccc(C)c(S(=O)(=O)N2CCCCC2CCNC(=O)C(=O)NC2CC2)c1 (stereo unspecified)	-3.9	6.3	0.9	-1.4	0.692	2.7	i
